# Bioassay records: PubChem, several laboratories
# Mtb growth = M. tuberculosis H37Rv growth inhibitors, H37Rv strain (AID 1626); M. tuberculosis H37Rv growth inhibition; higher % means a stronger effect; inhibition, % at 10 µM, or IC50 in µM where a hit was titrated; actives 0.95% (n = 220,000);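 active means confirmed in a dose series; inconclusive means inhibition above 80% but not taken into the dose series; inactive means below 80% or under 30% at every dose of the series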;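 further: bacteria incubated seven days before Alamar blue readout; 0% = bacteria only wells and 100% = bacteria with antibiotic wells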
# Arbovirus inh = antivirals against arbovirus infection; inhibition, % at 10 µM; actives 0.37% (n = 200,000); arbovirus infection cell-based antiviral screen;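 active means inhibition from about 30%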;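 further: bluetongue infection of BSR cells; cell survival read as ATP light after 72 h; 0% = infected wells without compound and 100% = uninfected wells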
# RecA intein inh = blocks M. tuberculosis RecA intein splicing; P9WHJ3; cell-free RecA intein splicing, fluorescence; inhibition, %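 (about 9 µM by stock and volumes)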; actives 0.75% (n = 290,000); AID 2221; in the data active means inhibition above about 30%; inconclusive means no clear call, values can overlap the other calls;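 further: 0% = vehicle wells and 100% = reference inhibitor control wells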
# Target sequence (P9WHJ3 whole entry, looked up): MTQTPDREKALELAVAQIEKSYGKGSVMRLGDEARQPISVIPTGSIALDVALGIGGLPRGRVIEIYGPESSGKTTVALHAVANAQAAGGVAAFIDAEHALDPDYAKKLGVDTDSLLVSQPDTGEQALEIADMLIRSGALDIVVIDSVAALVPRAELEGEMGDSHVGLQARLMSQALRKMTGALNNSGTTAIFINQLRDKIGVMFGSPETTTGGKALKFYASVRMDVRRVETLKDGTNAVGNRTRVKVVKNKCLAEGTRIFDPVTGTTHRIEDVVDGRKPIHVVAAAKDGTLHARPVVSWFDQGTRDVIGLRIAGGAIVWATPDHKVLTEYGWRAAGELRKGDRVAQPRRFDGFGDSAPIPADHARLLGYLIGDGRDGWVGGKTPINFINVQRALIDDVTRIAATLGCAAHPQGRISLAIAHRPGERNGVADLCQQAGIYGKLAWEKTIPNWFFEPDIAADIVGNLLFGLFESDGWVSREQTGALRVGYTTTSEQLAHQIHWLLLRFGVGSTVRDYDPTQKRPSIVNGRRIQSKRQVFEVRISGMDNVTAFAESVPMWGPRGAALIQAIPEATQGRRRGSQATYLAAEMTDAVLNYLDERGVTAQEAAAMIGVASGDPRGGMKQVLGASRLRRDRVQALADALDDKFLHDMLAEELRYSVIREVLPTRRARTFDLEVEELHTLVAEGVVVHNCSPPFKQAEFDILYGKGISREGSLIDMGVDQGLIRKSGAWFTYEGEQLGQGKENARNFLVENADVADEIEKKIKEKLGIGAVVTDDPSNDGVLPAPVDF
# Mtb betalactam = beta-lactam sensitization of Mtb H37Rv. M. tuberculosis H37Rv growth with meropenem, percent inhibition; hits of this screen are not shown here. inhibition, % at 25 µM. actives 0.27% (n = 330,000);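 active means about 74% or more and at least 40 points above the plate without the antibiotic, then above 30% in a dose series; inconclusive means first-round hits that could not be retested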;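 further: growth measured after seven days incubation then overnight dye step; 0% = bacteria only wells and 100% = bacteria with antibiotic; twin plates without the antibiotic show which effects depend on it; some results filed as inactive read as strong as hits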
# YopH PTP inh = YopH (Yersinia) phosphatase inhibition. fluorescence Ex485/Em525. inhibition, %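 (about 10 µM by stock and volumes)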. actives 0.16% (n = 140,000). AID 898;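 active means inhibition of 50% or more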;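 further: controls were vehicle for no effect and minimum signal wells for full effect; inactives centre near -20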
# Arbovirus inh repeat = recorded beside Arbovirus inh, whose call it bears; inhibition, %; measured here: 10K subset replicate screen; many hits read low in the repeat;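 first of two repeat runs on a subset; 0% = infected and 100% = uninfected wells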
# An asterisk follows results filed as active; ? = inconclusive; · = no result given. Not all compounds are listed; the hit share may differ from the screen's.
SMILES,Mtb growth,Arbovirus inh,RecA intein inh,Mtb betalactam,YopH PTP inh,others
COc1ccc(C)cc1S(=O)(=O)N1CCCC(C(=O)NCc2ccccn2)C1 (centres undefined),·,·,-0.2,-17,·,
Cc1cccc(/C(N)=N/OC(=O)c2ccoc2C)c1,·,·,-5.4,11,·,
COc1ccc(NS(=O)(=O)c2ccc(F)cc2F)cn1,·,·,-3.6,4,·,
C/C(=N\NC(=O)c1cc(C)oc1C)c1ccc(N2CCOCC2)cc1,-1%,0,1.2,-13,·,
CCN1CCN(S(=O)(=O)c2cnc(Cl)c(Br)c2)CC1,-5%,9,6.3,-1,-26,
COc1ccc(-c2nn(C)c3sc(C(=O)N4CCOCC4)cc23)cc1OC,8%,-3,1.3,1,-2,
COc1ccc(Cl)cc1S(=O)(=O)N1CCN=C1C,6%,5,-7.0,3,·,Arbovirus inh repeat=0
O=C(COC(=O)C1CCCCC1)NCCc1ccccc1,-3%,1,·,·,-30,
Cc1ccc2oc(=O)n(CCOc3ccccc3)c2c1,3%,2,3.9,2,·,
CC(=O)c1cccc(NC(=O)CCNS(=O)(=O)c2cccc3nsnc23)c1,-5%,-1,4.9,-13,-8,Arbovirus inh repeat=2
CCOC(=O)N1CCC(n2c(SCC(=O)NCc3ccccc3)nc3ccccc3c2=O)CC1,-5%,-4,-2.7,3,-17,
CSc1nnc(-c2ccncc2)n1/N=C/c1cn(-c2ccccc2)nc1-c1ccc(Cl)cc1,5%,·,1.6,10,·,
COc1ccc(C2/C=C\CN(S(=O)(=O)c3ccc4ccccc4c3)CC(=O)N2Cc2ccc(F)cc2)cc1 (centres undefined),-1%,·,3.2,-6,·,
Cc1nc(Oc2cccc(Cl)c2)c2oc3ccccc3c2n1,10%,2,5.3,-5,-32,
CCCC(O)(CCC)C(=O)NNc1ccc(C)cc1,?,·,-1.8,96,·,
CC1(c2ccc3noc(-c4ccc(F)cc4)c3c2)OCCO1,-6%,-1,1.4,-2,-30,
CN(c1ccc(C(=O)Nc2ccc(CC#N)cc2)cc1)S(C)(=O)=O,2%,9,-1.1,-9,·,
Cc1oc(-c2ccccc2F)nc1CS(=O)(=O)CC(=O)NCCN(C)C1CCCCC1,·,-10,-2.5,4,-11,
O=C(CSc1nc2c([nH]c3ccccc32)c(=O)n1-c1ccccc1)NCC1CCCO1 (centres undefined),·,·,-4.7,-4,·,
COc1ccccc1N1C(=O)C(=O)N(C)C1=O,·,·,1.7,-4,·,
Cc1cc(=O)[nH]c(NCc2ccccc2)n1,-11%,·,0.3,-11,·,
CC(C)COc1ccc(Cc2cnc(N)nc2N)cc1,-7%,-30,2.2,-11,-17,
C=CCn1c(SCC(N)=O)nc(C)cc1=O,10%,22,-1.6,-7,-15,
COc1cc2[nH]c(-c3ccc(C)cc3)cc(=O)c2cc1OC,-13%,-6,0.5,13,-27,
CCCOc1cccc(NC(=O)c2c(-c3ccccc3)noc2C)c1,-1%,-3,5.3,-8,31,

# In the list so far, 4 contain an aryl thioether with sulfur outside any ring:
SMILES,Mtb growth,Arbovirus inh,RecA intein inh,Mtb betalactam,YopH PTP inh,others
CCOC(=O)N1CCC(n2c(SCC(=O)NCc3ccccc3)nc3ccccc3c2=O)CC1,-5%,-4,-2.7,3,-17,
CSc1nnc(-c2ccncc2)n1/N=C/c1cn(-c2ccccc2)nc1-c1ccc(Cl)cc1,5%,·,1.6,10,·,
O=C(CSc1nc2c([nH]c3ccccc32)c(=O)n1-c1ccccc1)NCC1CCCO1 (centres undefined),·,·,-4.7,-4,·,
C=CCn1c(SCC(N)=O)nc(C)cc1=O,10%,22,-1.6,-7,-15,

# Going on with the list.
SMILES,Mtb growth,Arbovirus inh,RecA intein inh,Mtb betalactam,YopH PTP inh,others
COc1ccccc1-n1cc2c([N+](=O)[O-])cc([N+](=O)[O-])cc2n1,·,·,-2.4,100,·,
CN(C)S(=O)(=O)Oc1ccc(C(=O)Nc2cccc(Cl)c2)cc1,-3%,-9,-0.4,0,·,
CC[C@H](C)[C@H](NS(=O)(=O)c1ccc(C)cc1)C(=O)N1CCC(C(=O)N[C@H](C(=O)O)C(C)C)CC1,0%,7,-0.5,·,-16,
COc1ccc(C)cc1NC(=O)c1ccc(S(=O)(=O)N2CCOCC2)cc1,-7%,-1,-1.7,-4,-30,
COc1ccc(C(=O)NC(=S)Nc2cc3oc4ccccc4c3cc2OC)cc1,60%,8,-3.3,14,-1,
CC1(C)CC(=O)C(C(C2=C(O)CC(C)(C)CC2=O)c2ccc([N+](=O)[O-])cc2)C(=O)C1 (centres undefined),4%,7,-0.8,12,-31,
Cc1ccc(Cl)cc1NC(=O)COC(=O)C1CCCCC1,-5%,8,2.8,-9,-22,
O=C1/C(=C/c2cccc([N+](=O)[O-])c2)Oc2cc(O)ccc21,·,·,0.2,-5,·,
Cc1cc(C)c(S(=O)(=O)Nc2ccc(N(C)C)cc2)c(C)c1-n1cnnn1,·,·,-7.3,-13,·,
NC(N)=N/N=C/c1ccc(N(c2ccccc2)c2ccccc2)cc1,·,·,-122,100,·,
COc1cc2c(cc1OC)-c1cc(Nc3ccc4c(c3)OCCO4)nc(=O)n1CC2,-8%,-4,1.7,30,7,
O=C(NC1CCCC1)C(=O)N(c1ccccc1F)C(C(=O)NCC1CCCO1)c1cccs1 (centres undefined),-9%,2,·,0,·,
CC1CC(C)CN(S(=O)(=O)CCNC(=O)c2ccc3c(c2)OCO3)C1 (centres undefined),·,·,-1.0,3,·,
CCCOc1ccc(CN(C(=O)c2cccc(OC)c2)C2CCS(=O)(=O)C2)cc1 (centres undefined),·,·,-0.8,-7,·,
CCC(CC)NC(=O)COC(=O)CCC(=O)c1cccs1,2%,-5,-6.1,-1,-25,
Cc1cc(/C=C2/NC(=O)N(Cc3ccccc3F)C2=O)c(C)n1C(C)C,7%,6,·,0,-26,
C/C(=N\OC(=O)c1ccc(C)cc1)c1sc(C)nc1C,9%,4,0.9,73,-9,
Cc1cc(C(F)F)n2nc(C(=O)Nc3cc(C)on3)nc2n1,-1%,-1,-1.6,-6,-5,
CCCn1c2ccccc2c2cnn(CC(=O)OC)c(=O)c21,·,·,3.9,5,·,
C/C(=N\NC(=O)C1CC1)c1ccc(NC(=O)c2ccc(Br)o2)cc1,1%,-9,-0.1,2,·,
OCc1nc2ccc(Cl)cc2[nH]1,-3%,·,-0.3,-2,·,
C/C(=N/NC(=O)c1ccc(-c2ccccc2)cc1)c1cccc(O)c1,·,·,2.1,2,·,
C=CCn1c(SCc2c(C)noc2C)nc2ccccc2c1=O,3%,-15,2.9,18,-10,
CC(OC(=O)C1CSC2(C)CCC(=O)N12)C(=O)Nc1cccc(C#N)c1 (centres undefined),·,·,0.9,-2,·,
Cc1cc(Nc2ccc(Cl)cc2)n(-c2cccc(Cl)c2)n1,5%,-11,23,62,-17,

# Carrying on.
SMILES,Mtb growth,Arbovirus inh,RecA intein inh,Mtb betalactam,YopH PTP inh,others
CCc1ccc(-c2nc(CN3CCCC(C(=O)O)C3)c(C)o2)cc1 (centres undefined),3%,2,1.2,-3,-27,Arbovirus inh repeat=3
O=C(NCC(=O)N1CCC2(CC1)NCCc1[nH]cnc12)c1ccc(F)cc1,·,·,-0.2,6,·,
CS(=O)(=O)c1nc(S(=O)(=O)c2ccc(Cl)cc2)c(NCCCN2CCCC2=O)s1,·,·,-31,2,·,
Cc1cc(NC(=O)CSc2nnc(CNC(=O)c3cccc(C(F)(F)F)c3)o2)no1,·,·,0.5,-7,·,
COc1ccc(C(=O)/C=C/c2cn(CC(O)CN3CCOCC3)c3ccccc23)cc1 (centres undefined),15%,8,·,89,-15,
COc1cccc(CN(C)C(=O)c2cccc(OC3CCN(C4CCCC4)CC3)c2)c1,6%,-8,·,4,·,
COc1ccc(OCC(=O)N/N=C(\C)c2ccc(OC)cc2)cc1,3%,9,-1.5,2,·,
CCN1C(=O)[C@H]2[C@@H](c3ccc(OC)cc3)N3C(=O)CN(Cc4ccccc4)C(=O)[C@@]3(Cc3ccccc3)[C@H]2C1=O,·,·,2.9,-5,·,
CCCN(C(=O)c1ccccc1Cc1ccccc1)C1CCS(=O)(=O)C1 (centres undefined),·,·,-0.4,-10,·,
O=C(Nc1nnc(Cc2c[nH]c3ccccc23)s1)c1ccc(Cl)cc1Cl,-1%,-15,27,7,-41,
N#CCCN(Cc1cccnc1)S(=O)(=O)c1ccc(S(=O)(=O)NC2CCCCC2)cc1,-8%,1,-5.0,-2,-31,
COc1ccc(Oc2ncccc2NC(=O)c2cccc(C)c2C)cc1,4%,·,3.6,4,·,
COc1cc(CN(C)Cc2ccccc2)cc(OC)c1O,-3%,8,-4.8,2,-9,
COc1ccc(CCNc2nc(-c3cccc(NC(C)=O)c3)cs2)cc1OC,4%,7,-3.6,-9,·,
COc1ccc(S(=O)(=O)N2CCC(C(=O)N[C@@H](C)C(=O)NCc3ccccc3OC)CC2)cc1,·,·,2.7,7,·,
Cc1ccc(C(=O)CSc2nnc(CNc3ccc(F)cc3)o2)cc1,3%,8,2.5,2,·,
O=C(NCc1cccnc1)c1ccc(CS(=O)(=O)c2ccc(Cl)cc2)o1,-6%,7,0.6,-8,-31,
CCOc1cc(Br)ccc1S(=O)(=O)N1CC(C)OC(C)C1 (centres undefined),-8%,6,-1.5,-7,-3,
CC(C)(C)c1cc(C(=O)NCc2ccccc2)ccn1,-7%,7,-0.3,6,-42,
COC(=O)c1cc2c(=O)c3ccccc3oc2nc1/C=C/N(C)C,·,·,-6.7,9,·,
CC(=O)c1cccc(NC(=O)CN(C)S(=O)(=O)c2ccc3c(c2)CCC(=O)N3)c1,·,·,-2.7,0,·,
CC(C#N)Sc1nnc(Nc2ccccc2)s1 (centres undefined),-1%,3,-1.4,-2,·,
CNc1nc(N)c([N+](=O)[O-])c(Nc2cccc(Cl)c2)n1,-4%,·,3.0,-3,·,
CCOC(=O)C1CCCN(c2cc(=O)n(Cc3ccc(F)cc3)c(=O)[nH]2)C1 (centres undefined),-6%,10,-0.1,4,1,
CCOC(=O)N=S(=O)(Oc1ccc([N+](=O)[O-])cc1)c1ccc(Cl)cc1 (centres undefined),7%,4,3.0,-4,37,

# More results
SMILES,Mtb growth,Arbovirus inh,RecA intein inh,Mtb betalactam,YopH PTP inh,others
Cc1ccc(-c2noc(CCC(=O)NCCCN3CCN(c4cccc(Cl)c4)CC3)n2)cc1,9.9µM*,-36,-2.9,98,-103,
COC(=O)[C@@H]1C[C@@]2(O)[C@H](O)[C@H](O)[C@H](O)C[C@H]2N1Cc1ccccc1OS(=O)(=O)c1ccc(C)cc1,1%,·,0.2,2,·,
CC(=O)N1CCN(C(=O)c2cccc(S(=O)(=O)Nc3ccc(C)cc3)c2)CC1,-3%,3,1.0,-4,-37,
CC1CC(C)CN(CCCNC(=O)c2nn(C)c3c2CS(=O)(=O)c2ccccc2-3)C1 (centres undefined),·,·,-2.5,-6,·,
COc1ccc(N2CCN(CCNC(=O)CCNS(=O)(=O)c3cccs3)CC2)cc1,4%,0,0.0,6,15,Arbovirus inh repeat=2
CCN(CC)CCCN1C(=O)C(O)=C(C(C)=O)C1c1cccc(OC)c1 (centres undefined),0%,5,-2.9,·,-32,
O=C(O)c1occc1CSc1ccccc1,·,·,-0.8,5,·,
CCOC(=O)C(=CNc1cc(C)nn1-c1ccc(C)cc1)C(=O)OCC,21%,15,1.4,3,-4,
CC(C)CC(=O)NN(C)c1nc(-c2ccccc2)nnc1C(F)(F)F,1%,5,-0.9,-2,-4,
COC(=O)c1ccc(CSc2nnc(NC(C)C)s2)o1,-9%,14,3.9,-1,·,
Cc1ccc(S(=O)(=O)N2CCC(C(=O)OCC(=O)NCCc3ccccc3)CC2)cc1C,·,·,2.4,-4,·,
O=C(c1cccc(S(=O)(=O)N2CCOCC2)c1)N(Cc1ccc(F)cc1)Cc1ccco1,3%,1,-2.1,-2,·,
CCOP(=O)(CC(C(C)=O)C(O)c1ccccc1)OCC (centres undefined),-5%,-6,-0.8,-5,-25,
CCOCCCNC(=O)C(c1ccc(C)cc1)N1CCOCC1 (centres undefined),1%,13,0.8,-4,-35,Arbovirus inh repeat=1
COc1cccc(NC(=O)Nc2ccccc2C(N)=O)c1,0%,7,-4.1,-2,·,
O=C1c2cccnc2C(=O)N1Cc1ccc(S(=O)(=O)N2CCOc3ccccc32)cc1,·,·,-0.1,1,·,
Cc1ccccc1C(=O)NC1CCN(Cc2ccccc2)CC1,-10%,-1,-0.1,4,·,
COc1ccc(-c2[nH]ncc2CN2CCN(C(=O)c3ccco3)CC2)cc1F,-1%,7,-1.0,-3,·,
COc1ccc(OC)c(S(=O)(=O)Nc2ccc3c(c2)N(C(C)=O)CCC3)c1,·,·,0.1,-2,·,

# Entries listed so far with a CF3 group:
SMILES,Mtb growth,Arbovirus inh,RecA intein inh,Mtb betalactam,YopH PTP inh,others
Cc1cc(NC(=O)CSc2nnc(CNC(=O)c3cccc(C(F)(F)F)c3)o2)no1,·,·,0.5,-7,·,
CC(C)CC(=O)NN(C)c1nc(-c2ccccc2)nnc1C(F)(F)F,1%,5,-0.9,-2,-4,
